# Mtb H37Rv: Mycobacterium tuberculosis H37Rv growth inhibition, cell based, confirmatory dose response (AID 1949); most inactive calls were filed without a number and no value below 0 was filed; inhibition, % at 10 µg/mL, or IC50 in µg/mL where a hit was titrated; actives 1.6% (n = 100,000);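 active = confirmed in a dose series; inconclusive = about 50% or more but not retested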;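 also: bacteria grown 7 days with compound before Alamar blue readout; 0% = untreated bacteria and 100% = reference antibiotic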
# The depositor's hits bear a star; i = inactive; ? = inconclusive. This is a subset; rates above refer to the full screens.
SMILES,Mtb H37Rv
CCN(CC)S(=O)(=O)c1ccc(C(=O)N(Cc2ccco2)c2ccc(C)cc2)cc1,i
CCc1cccc(CC)c1NC(=O)C1CCCCC1,i
CCc1ccc(S(=O)(=O)Nc2ccc(C(=O)OC)cc2)cc1,5%
CCN(CC)C(=O)C(=O)c1cn(CC(=O)NC(C)C)c2ccccc12,i
CCc1cccc(C)c1NC(=O)c1ccc(Cl)s1,i
C=CCNC(=O)C(=O)NCCc1ccc(OC)cc1,7%
CCCNCC(=O)NC12CC3CC(CC(C3)C1)C2,i
CC(C)Oc1ccc(C(=O)NCc2ccco2)cc1,2%
Cc1ccc(NC(=S)N2CCN(C)CC2)c(C)c1,i
Cc1cc(C)c2[nH]c(C)c(CN3CC4(C)CC3CC(C)(C)C4)c(=O)c2c1 (stereo not drawn),i
C=CCn1c(N)cc(=O)nc1SCC(=O)N1c2ccccc2Sc2ccccc21,0%
CCC(C)c1ccc(OCCCNCCCOC)cc1 (stereo not drawn),i
COc1ccc(CCNC(=S)Nc2ccc(F)cc2)cc1,i
CC(C)N(Cc1ccccc1)C(=S)Nc1cccnc1,i
O=C(NCc1ccco1)C(=O)Nc1cccc(C(F)(F)F)c1,i

# Part of the list above, with each value named:
molecule: CCN(CC)C(=O)C(=O)c1cn(CC(=O)NC(C)C)c2ccccc12
  Mtb H37Rv: i

molecule: CCc1cccc(C)c1NC(=O)c1ccc(Cl)s1
  Mtb H37Rv: i

molecule: C=CCNC(=O)C(=O)NCCc1ccc(OC)cc1
  Mtb H37Rv: 7%

molecule: CCCNCC(=O)NC12CC3CC(CC(C3)C1)C2
  Mtb H37Rv: i

# Next part.
SMILES,Mtb H37Rv
O=C(CN1CCCC1=O)NC1(C(F)(F)F)NC(=O)N(c2ccc(F)cc2)C1=O (stereo not drawn),i
O=C(CCNC(=O)Nc1cccc(Cl)c1)NCCOCc1ccccc1,i
O=C(NC1CCCCCCC1)C(Cl)Cl,i
CCNC(=S)NCCSc1ccc(C)cc1,i
O=C(Nc1ccc(-c2cn3ccsc3n2)cc1)c1ccc(Cl)cc1,i
CC(Sc1nc(-c2ccccc2)cc(C(F)(F)F)n1)C(=O)NCc1ccco1 (stereo not drawn),i
COc1ccc(S(=O)(=O)NCc2ccccn2)cc1C,i
Cc1c(Cl)cccc1N(CC(=O)Nc1ccc(F)cc1)S(=O)(=O)c1ccccc1,i
O=c1c2ccccc2ncn1CCCOc1ccc(Cl)c(Cl)c1,3%
COc1cc([N+](=O)[O-])ccc1NC(=O)c1cc(C)cc(C)c1,i
Cc1cc(C)cc(NC(=O)CN(C)S(=O)(=O)c2ccccc2)c1,0%
O=[N+]([O-])c1ccc2nc(CSc3nc4ccccc4s3)[nH]c2c1,0%
CC(C)(C)OC(=O)NNC(=S)NCC1CCCO1 (stereo not drawn),i
CC(=O)Nc1cccc(NC(=O)CSc2nnc(C)s2)c1,i
COc1cccc2cc(C(=O)Nc3ccccc3C(F)(F)F)c(=O)oc12,i
O=S(=O)(Nc1ccc(F)c(Cl)c1)c1ccccc1,i
CC12CN(S(=O)(=O)c3ccccc3)CC(C)(CN(S(=O)(=O)c3ccccc3)C1)C2,i
Cc1ccccc1C(=O)Nc1cccc(NC(=S)NC(=O)c2ccc(F)cc2)c1,i
O=C(CCN1C(=O)c2ccccc2C1=O)Nc1ccc(S(=O)(=O)N2CCOCC2)cc1,4%
Cc1ccc2c(=O)cc(C(F)F)oc2c1,i
Cc1ccc(SCCC(=O)Nc2ccc(S(=O)(=O)N3CCCC3)cc2)cc1,i
COc1cc(OC)cc(C(=O)NC(=S)N2CC3CC(C2)c2cccc(=O)n2C3)c1 (stereo not drawn),i
CCOC(=O)C1=C(C)Nc2ncnn2C1c1cccc(OC)c1OCC (stereo not drawn),2%
COc1ccc(NC(=O)CN(C2CCCCC2)S(=O)(=O)c2ccc(C)cc2)cc1Cl,5%
CCCC(=O)Nc1cc(-c2nc3ccccc3[nH]2)ccc1Cl,5%
NC(=O)C1CCN(C(=O)CN(Cc2ccccc2)S(=O)(=O)c2ccc(F)cc2)CC1,i
CC1=CCC(C(=O)O)C(C(=O)Nc2cccnc2)C1 (stereo not drawn),i
Cc1cc(OCC(=O)Nc2ccc(C(=O)OCC(C)C)cc2)ccc1Cl,i
CCOc1ccc(NC(=O)NNC(=O)c2ccc(Cl)cc2Cl)cc1,i
O=C(OCc1c(F)cccc1Cl)c1cc(Br)ccc1O,?
CC(=O)Oc1ccccc1C1=NN(C(C)=O)C(c2ccccc2)C1 (stereo not drawn),i
COCCNC(=O)c1ccccc1NC(=O)CCSc1ccc(C)cc1,i
Cc1cccc(NC(=O)CC(CC(=O)O)c2ccccc2)c1 (stereo not drawn),i
O=C(Nc1ccc(Cl)c(C(=O)O)c1)c1ccco1,i
O=C1CC(c2ccco2)CC2=C1C=Nc1ccccc1N2 (stereo not drawn),i
CC(C)NC(=O)COc1ccc(-c2ccc(C#N)cc2)cc1,i
Cc1ccc(OC(=O)c2ccc([N+](=O)[O-])cc2)c(Br)c1,i
CCOC(=O)c1ccc(NC(=S)NNC(=O)Cc2ccc(OCC)c(OCC)c2)cc1,i
COCC(C)NC(=O)c1ccc(OC)cc1OC (stereo not drawn),i
COc1ccc(C(=O)Nc2ccc(OC(C)C)cc2)cc1OC,2%
COCC(=O)Nc1nnc(CC(C)C)s1,i
CCc1c(C)nc2ccc(Br)cc2c1SCCC(=O)O,i
OCc1ccccc1NC(=S)Nc1cccnc1,i
COc1ccc(C(=O)NCC2OCCc3ccccc32)cc1 (stereo not drawn),i
CC(C)C(=O)NCCCc1nc2ccccc2[nH]1,i
Oc1ccc(NC(=S)Nc2cccc(Cl)c2)cc1,i
CSc1ccc(-c2nc3ccccc3[nH]2)cc1,i
Cc1ccc(OCC(=O)Nc2ccccc2C(F)(F)F)cc1C,i
O=C(CSc1nnc(C23CC4CC(CC(C4)C2)C3)n1-c1ccccc1)NCc1ccccc1,i
C/C(=N\NC(=O)c1ccc(CN2CCOCC2)cc1)c1cccs1,i
O=C(Nc1ccc(Br)cc1)c1ccc(NS(=O)(=O)c2cccc3cccnc23)cc1,i
NS(=O)(=O)c1ccc(CCNS(=O)(=O)c2cccs2)cc1,i
COc1ccc(CCNC(=S)NCc2ccccc2)cc1C,0%
COc1ccc(OC)c(S(=O)(=O)Nc2ccc(O)c(Sc3ncn[nH]3)c2)c1,i
COc1ccc(OC)c(N2C(=O)NC(=O)C(CCc3ccncc3)(CCc3ccncc3)C2=O)c1,i
CCOc1ccc(C(=O)N2CCN(C(=O)c3ccc(OCC)cc3)CC2)cc1,i
Cc1nc(C)c(C(=O)C2=C(O)C(=O)N(CCCN3CCOCC3)C2c2ccc(C(C)C)cc2)s1 (stereo not drawn),i
Cc1ccc(SCc2[nH]nc3c2C2(CCSCC2)C(C#N)=C(N)O3)cc1,i
CCOC(=O)c1c(NC(=O)C2CC(=O)NN2C)sc(C)c1C (stereo not drawn),i
O=C(CC(CC(=O)c1ccccc1)c1ccccc1)c1ccccc1,i

# Further results
SMILES,Mtb H37Rv
COc1cc2c(cc1NC(=O)c1cc(Cl)ccc1OC)oc1ccccc12,i
C=CCNC(=O)c1cc2c(n(-c3ccc(Cl)cc3)c1=O)CCCC2=O,i
COc1c(Br)cc(Cl)cc1C=O,i
CCN1CCN(C2CCN(Cc3cccc(C)c3)CC2)CC1,i
Cc1ccc(SCC(=O)Nc2cccc(C(=O)O)c2)cc1,i
Cc1sc2ncn(CCOc3ccccc3)c(=O)c2c1C,i
CC(C)(C)c1ccccc1NC(=O)Cc1ccccc1,i
CCc1ccccc1NC(=O)CN(c1cccc(Br)c1)S(C)(=O)=O,i
O=C(O)c1cccc(CSc2n[nH]c(-c3ccc(Cl)cc3Cl)n2)c1,i
COc1ccc(Nc2nc(N)nc(CN3CCN(c4ccc(F)cc4)CC3)n2)cc1,?
CCn1c(=S)[nH]c2nc3c(cc2c1=O)COC(C)(C)C3,i
O=c1c2ccccc2[nH]c(=S)n1CCCN1CCN(c2cccc(Cl)c2)CC1,2.5µg/mL*
O=C(NC12CC3CC(CC(C3)C1)C2)c1cc(Br)ccc1Cl,0%
COc1cccc(CN2CCN(C3CCCC3)CC2)c1,i
COc1ccc2nc(/C(C#N)=C\c3ccc(F)cc3)[nH]c2c1,i
CCCOc1ccc(C(=O)Nc2ccc3c(c2)oc2ccccc23)cc1,1%
O=C(c1c[nH]c2ccccc12)C(F)(F)F,i
O=C(c1cc(Br)cs1)N1CCCCCC1,i
CC1(C(=O)O)CCC(C(=O)N2CCc3ccccc32)C1(C)C (stereo not drawn),i
O=C(C1c2ccccc2Oc2ccccc21)N1CCC2(CC1)OCCO2,i
CC(C)(C)OC(=O)CSc1nc2ccc(Cl)cc2[nH]1,i
CCCCC(=O)N(Cc1ccccc1)C(C)C,i
CCOC(=O)c1ccc(NC(=O)COc2ccccc2C(=O)Nc2ccccc2)cc1,i
Cc1ccc(-n2c(SCC(=O)NC(C)c3ccccc3)nnc2-c2ccccc2)cc1 (stereo not drawn),3%
COc1ccc(-c2noc(-c3cccc(OC)c3OC)n2)cc1OC,1%
COc1cc(C=O)ccc1OCC(N)=O,i
c1cncc(CN2CCN(Cc3ccncc3)CC2)c1,i
CCOC(=O)c1ccc(NC(=O)c2ccc(C)cc2C)cc1,4%
O=C(CCCC(=O)Nc1cccnc1)Nc1cccnc1,0%
CCOC(=O)c1ccc(NC(=S)Nc2nn(Cc3ccc(Cl)cc3Cl)cc2Cl)cc1,i
Cc1ccc(OCCN2CCNCC2)c(I)c1,i
COc1cc2c(cc1NC(=O)c1cc(C)on1)oc1ccccc12,i
CC(C)(C)c1ccc(C(=O)NCc2ccc(S(N)(=O)=O)cc2)cc1,i
CCn1c(CCCCc2nnc(SCC(=O)c3ccccc3)n2CC)nnc1SCC(=O)c1ccccc1,3%
CN(C)CCn1c(N)nc2ccccc21,i
O=C(NCc1ccco1)C(=O)Nc1ccc(F)cc1,i
COc1ccc(C(C)NC(=O)CC23CC4CC(CC(C4)C2)C3)cc1 (stereo not drawn),i
CSc1ccccc1NC(=S)Nc1cccc(Cl)c1C,i
COc1ccccc1N1CCN(C(=O)Nc2ccc(Cl)cc2)CC1,9%
CCOc1ccc(C(=O)Nc2ccc(N3CCN(C(=O)c4ccc(C)cc4)CC3)cc2)cc1Br,i
CC(C)C(C(=O)N1CCN(CCO)CC1)c1ccccc1 (stereo not drawn),2%
Cc1ccc2nc(/C(C#N)=C\c3ccc(N4CCCC4)cc3)[nH]c2c1,i
Cc1cc(C(F)F)n2nc(C(=O)Nc3ccc(S(=O)(=O)Nc4ccccc4C)cc3)nc2n1,i
COc1ccc(OC)c(C(=O)CSc2nnc(-c3cccnc3)n2C)c1,i
Cc1cc(Cl)ccc1NC(=S)NCCC(c1ccccc1)c1ccccc1,i
Cc1ccc(C(=O)Nc2ccc(C(=O)N3CCOCC3)cc2)cc1,i
O=C(c1cc2cc(Br)ccc2oc1=O)N1CCN(c2cc(Cl)ccc2Cl)CC1,0%
O=C(NCCc1ccc(F)cc1)N1CCOCC1,0%
CCOc1ccc(OCCCN2CCCC2)cc1,2%
Cc1ccc(OCC(=O)Nc2sc(Cc3ccccc3)c(C)c2C(N)=O)c(C)c1,i
COC(=O)COc1cccc(NC(=O)c2ccc(Cl)cc2)c1,0.21µg/mL*
CCC(=O)Oc1ccc(C(=O)Nc2ccc(Cl)cc2)cc1,9%
Cc1ccc(OCC(=O)NS(=O)(=O)c2ccccc2)cc1,i
Cc1oc2c(C)c3oc(=O)c(CC(=O)O)c(C)c3cc2c1-c1ccccc1,i
CC1CN(CCOCCOc2cccc(Br)c2)CC(C)O1 (stereo not drawn),i
Cc1ccc(S(=O)(=O)NCc2cccnc2)cc1,i
CCc1ccccc1NC(=O)C1CCN(S(=O)(=O)c2ccc(OC)cc2)CC1,i
O=C(NCc1ccc(F)cc1)c1cnccn1,i
C=CCn1c(NC(=O)C2(c3ccc(F)cc3)CCCC2)c(C(=O)OCC)sc1=S,1%
CCC(Sc1ccccc1C(=O)O)C(=O)O (stereo not drawn),4%

# Ordered by formula weight (largest number first): twelve of the compounds above.
SMILES,Mtb H37Rv
O=C(c1cc2cc(Br)ccc2oc1=O)N1CCN(c2cc(Cl)ccc2Cl)CC1,0%
Cc1ccc(OCC(=O)Nc2sc(Cc3ccccc3)c(C)c2C(N)=O)c(C)c1,i
CCc1ccccc1NC(=O)C1CCN(S(=O)(=O)c2ccc(OC)cc2)CC1,i
Cc1oc2c(C)c3oc(=O)c(CC(=O)O)c(C)c3cc2c1-c1ccccc1,i
Cc1ccc(C(=O)Nc2ccc(C(=O)N3CCOCC3)cc2)cc1,i
COC(=O)COc1cccc(NC(=O)c2ccc(Cl)cc2)c1,0.21µg/mL*
Cc1ccc(OCC(=O)NS(=O)(=O)c2ccccc2)cc1,i
CCC(=O)Oc1ccc(C(=O)Nc2ccc(Cl)cc2)cc1,9%
O=C(NCCc1ccc(F)cc1)N1CCOCC1,0%
CCOc1ccc(OCCCN2CCCC2)cc1,2%
CCC(Sc1ccccc1C(=O)O)C(=O)O (stereo not drawn),4%
O=C(NCc1ccc(F)cc1)c1cnccn1,i

# Carrying on:
SMILES,Mtb H37Rv
COc1ccc(NC(=O)NNC(=O)c2ccccc2I)cc1OC,1%
COc1cc(CNC(=O)c2ccc(COc3ccccc3Cl)cc2)cc(OC)c1OC,i
COc1ccccc1CC(=O)NC1CCCCCCC1,i
CCN(CC)C(=O)Cn1cnc([N+](=O)[O-])n1,0%
O=C(c1cccc([N+](=O)[O-])c1)n1cc(Cl)cn1,3%
COc1ccc(-c2nc3c4cnn(-c5ccccc5)c4ncn3n2)cc1,i
CCCC(=O)NC(c1ccc(OC)c(OC)c1)c1cc(Cl)c2cccnc2c1O (stereo not drawn),i
Cc1cc(C)c2c(=O)[nH]n(C3CCCCCC3)c2n1,4%
Cc1ccc(OCC(=O)Nc2sc(Cc3ccccc3)c(C)c2C(N)=O)c(Br)c1,i
COCCNC(=O)C(CC(C)C)NS(=O)(=O)c1ccc(C)cc1 (stereo not drawn),i
O=C(NCC1CCCO1)c1cc(Br)ccc1Cl (stereo not drawn),i
COC(=O)c1c(C)oc2ccc(N(C(=O)c3ccncc3)S(=O)(=O)c3ccc(F)cc3C)cc12,i
